NPR1 antag = blocks ANP-stimulated signaling of human Npr1 receptor. P16066. HEK293 hNpr1 GloSensor cGMP, ANP-stimulated luminescence. Potency, µM (highest dose often 46.3 µM), for the others: at the top dose activity change, negative = inhibition, usual class: inhibitors. hit rate 1.6% among 76,000. AID 1347048; active = well fitted inhibition curve with a large enough effect; inconclusive = small, poorly fitted or top-dose-only effect; inactive = no such curve, though single readings can be large or run the other way;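 further: nearly all actives have a fitted effect of over 60% in size; nearly all hits also lower the signal before the agonist is added; a reference antagonist and vehicle were the controls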
Target sequence (P16066 whole entry, looked up): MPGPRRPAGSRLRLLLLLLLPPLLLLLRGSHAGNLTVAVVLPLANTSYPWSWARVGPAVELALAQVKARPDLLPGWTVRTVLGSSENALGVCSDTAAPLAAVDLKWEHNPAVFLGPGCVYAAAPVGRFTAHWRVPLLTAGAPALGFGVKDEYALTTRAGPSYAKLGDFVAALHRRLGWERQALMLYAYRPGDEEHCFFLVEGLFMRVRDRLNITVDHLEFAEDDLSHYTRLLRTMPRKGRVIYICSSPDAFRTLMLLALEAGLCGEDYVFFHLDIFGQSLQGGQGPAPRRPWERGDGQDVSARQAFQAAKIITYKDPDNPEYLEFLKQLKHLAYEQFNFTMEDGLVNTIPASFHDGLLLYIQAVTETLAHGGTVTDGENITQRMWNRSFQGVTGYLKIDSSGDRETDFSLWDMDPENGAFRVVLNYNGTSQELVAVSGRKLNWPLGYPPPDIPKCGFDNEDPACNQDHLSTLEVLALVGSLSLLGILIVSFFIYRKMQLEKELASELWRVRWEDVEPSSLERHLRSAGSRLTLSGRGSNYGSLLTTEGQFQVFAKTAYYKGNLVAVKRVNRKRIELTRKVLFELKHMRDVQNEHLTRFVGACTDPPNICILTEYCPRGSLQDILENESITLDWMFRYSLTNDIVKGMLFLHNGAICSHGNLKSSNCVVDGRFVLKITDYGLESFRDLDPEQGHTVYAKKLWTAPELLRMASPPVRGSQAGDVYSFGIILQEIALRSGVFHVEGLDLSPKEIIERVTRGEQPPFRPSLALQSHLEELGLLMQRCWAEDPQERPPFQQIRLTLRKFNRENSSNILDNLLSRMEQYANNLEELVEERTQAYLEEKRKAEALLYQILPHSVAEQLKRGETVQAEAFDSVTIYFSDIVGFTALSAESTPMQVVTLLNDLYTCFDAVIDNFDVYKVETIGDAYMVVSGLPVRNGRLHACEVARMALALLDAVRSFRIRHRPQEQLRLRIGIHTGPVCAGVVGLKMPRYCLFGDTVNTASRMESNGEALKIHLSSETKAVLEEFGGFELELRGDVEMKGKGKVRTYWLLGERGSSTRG
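HEK293 cells stably expressing human Npr1 and cGMP GloSensor pGS-40F, loaded 2 h with 2% GloSensor reagent, given compound 30 min at room temperature. Luminescence read before and 20 min after 0.1 nM hNppA.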
* = called active by the depositor; ? = inconclusive; [ ] = another dose, or the depositor's remark. On the % scale 0 is the no-effect control and ±100 the full control effect; potency means the concentration at half of the fitted maximal effect.

Sample of the layout, 5 compounds:
NPR1 antag,Compound
0%,O=C(NCC12CCCC=C1N(CC1CC1)C(=O)CC2)c1ccncc1 (stereo unspecified)
4%,CN1CCN(c2nc3c(c(=O)[nH]2)CCN(Cc2ccc(Cl)cc2)CC3)CC1
4%,O=C(COc1ccccc1)N1CC(F)(F)C[C@H]1c1nc(C2CC2)no1
0%,O=C(Cc1cccnc1)N1C[C@@H](COCC2CC2)[C@H](c2ccncc2)C1
14%,CCC[C@@H]1CN(Cc2cn[nH]n2)C[C@H]1C(=O)O

The list itself, from the start:
NPR1 antag,Compound
0%,O=C(NCC12CCCC=C1N(CC1CC1)C(=O)CC2)c1ccncc1 (stereo unspecified)
4%,CN1CCN(c2nc3c(c(=O)[nH]2)CCN(Cc2ccc(Cl)cc2)CC3)CC1
4%,O=C(COc1ccccc1)N1CC(F)(F)C[C@H]1c1nc(C2CC2)no1
0%,O=C(Cc1cccnc1)N1C[C@@H](COCC2CC2)[C@H](c2ccncc2)C1
14%,CCC[C@@H]1CN(Cc2cn[nH]n2)C[C@H]1C(=O)O
6%[70.6 µM],NC(=O)CNC(=O)[C@@]1(O)C[C@@H](O)[C@H](O)[C@@H](NC(=O)NC2CCCCC2)C1
1%[70.6 µM],CC1=C[C@@H](CNCCN(C)C)[C@H](C(C)C)C[C@H]1Cc1nnc(C(C)(C)C)o1
-28%,COc1cccc(CCC(=O)N2CCC3(CC2)N=C(c2ccc(Cl)cc2)NO3)c1
-1%[70.6 µM],Cc1nnc(-c2cc(-c3cccc(F)c3)ccn2)n1CCN1CCOCC1
4%,CNc1cccnc1OC1CCN(S(=O)(=O)Cc2ccccc2)C1 (stereo unspecified)
32µM*,Cc1ccccc1-c1cnc2[nH]cc(CC(=O)NCc3ccco3)c2c1
8%,Clc1ccc(-c2nc(C3CC3)nc3c2CCN(Cc2ccccc2)CC3)cc1
3%,CN(C(=O)N1CCCn2nc(C(=O)N3CCOCC3)cc2C1)c1ccccc1
-1%[70.6 µM],COc1ccc(Cn2c3c(c(=O)n2Cc2ccccc2)CCN(C(C)=O)C3)cc1
-12%,NC(=O)NCc1cn(C2CCN(Cc3cc4ccccc4s3)CC2)nn1
12%,O=c1[nH]c(C2CCCN(Cc3ccc(F)cc3)C2)nn1-c1ccc(Cl)cc1 (stereo unspecified)
0%,Cc1ccc(-c2ccc3nnc(CNC(=O)c4ccccc4C)n3n2)cc1C
-9%,O=C(NC[C@H]1O[C@H](Cc2cc(COc3ccccc3)on2)CC[C@@H]1O)Nc1ccc(F)cc1
-14%[70.6 µM],Cn1cnc2cc(Nc3ccc(Cl)cc3F)cc(C(=O)NCc3cccnc3)c21
3%,CO[C@H]1C[C@@H](O)C12CCN(C(=O)c1oc(COc3ccccc3)cc1C)CC2
-2%[70.6 µM],CC(=O)NC1(C)CN(c2cccc(C(F)(F)F)c2)C1
2%,COCCn1c(C)cnc1CCNC(=O)CC(C)C
-3%[70.6 µM],Fc1ccccc1CN1CCNc2cc(Nc3ccccc3)ncc2C1
-8%,CC(C)c1noc(-c2cccn3c(CNC(=O)CCCc4ccccc4)nnc23)n1
-4%[70.6 µM],Cn1cc(-c2cnc3[nH]cc(CC(=O)NCC4CCOCC4)c3c2)cn1
1%,COc1ccccc1C(=O)N[C@@H]1CN(Cc2ccncc2)C[C@H]1CN(C)C
2%,CCCCCC(=O)Nc1nc2c(s1)C[C@@H]1[C@](C)(CO)[C@H](O)CC[C@@]1(C)[C@@H]2CC(=O)NCCOC
-1%,O=C(CCn1ccnc1)N1CCC(c2nc(CCOc3ccc(F)cc3)no2)C1 (stereo unspecified)
6%,Cn1ccn2ncc(C(=O)NC3CC(c4nnc(CO)n4C4CC4)C3)c12 (stereo unspecified)
7%,NCC(=O)N1CCCC(N2CCN(c3cccc(Cl)c3)CC2)C1 (stereo unspecified)
?,CC1=C(C(=O)Nc2ccccc2)C(c2cccc(C)c2)N2C(CC(=O)NC3CC3)=CSC2=N1 (stereo unspecified)
-2%,O=C(NCCc1ccccc1)[C@@H]1COCC(=O)N1Cc1ccc(F)cc1
1%,COc1cccc(CNC(=O)C2CCN(c3cn[nH]c(=O)c3)C2)c1 (stereo unspecified)
-2%[70.6 µM],CC(=O)Nc1cccc(-c2ccnc(-c3nnc(C)n3-c3ccccc3)c2)c1
2%[70.6 µM],COCCN(C)C(=O)c1nc2nc(-c3ccccc3)c(Cl)cc2n1C
-7%,CCOCC(=O)N1CCc2nc3cc(-c4ccc(OC)cc4)[nH]n3c(=O)c2C1
-2%[70.6 µM],CC#CCn1cc2c3c(cccc31)[C@H](CC(C)C)N[C@H](C(=O)NC(C)C)C2
-2%,CCC1Oc2ccc(NC(=O)c3cccs3)cc2CN(Cc2ccc(F)cc2)C1=O (stereo unspecified)
-9%[70.6 µM],Cn1cc(CN2C[C@@H]3C[C@H]2C(=O)N(CC2CC2)c2ccccc2O3)c2ccccc21
-1%,CCN(Cc1noc(C)n1)C(=O)CC1C(=O)NCCN1CC(C)(C)C (stereo unspecified)
0%[70.6 µM],O[C@H]1CN[C@H](c2nc(-c3ccccn3)no2)C1
3%,O=C(CCC[C@@H]1[C@H]2CCCN3CCC[C@@H](CN1C(=O)c1ccccc1F)[C@@H]23)N1CCOCC1
-1%[70.6 µM],COc1ccc(-c2n[nH]c3c2CC(=O)N(CC2CCOCC2)C3)cc1F
-30%,O=C(NCCc1cccs1)c1cc2n(n1)CC(c1ccc3c(c1)OCO3)OC2 (stereo unspecified)
-4%,Cc1ccc(-c2ncc(C(=O)NCC3CCCCC3)c(-c3ccncc3)n2)cc1
-16%,CCOc1ccc(C(=O)N2CCN(c3nnc4ccc(C(F)(F)F)cn34)CC2)cc1
-5%,Cc1ncsc1CN1CCOc2ccc(C(=O)NCc3ccccc3F)cc2C1
11%,CC(C)(C(=O)O)c1cnc(N2C[C@@H](CO)[C@H](CO)C2)nc1N1CCOCC1
0%,Cc1cn2nc(C(=O)NCc3ccccc3F)cc2c(N2CCCC2)n1
2%,O=C(c1cn2ccsc2n1)N1CCn2nc(C(O)c3ccccc3)cc2C1 (stereo unspecified)
6%,CCOc1ccccc1NC(=O)N1CCC(N2C(=O)C3(CCCC3)C2c2ccccc2)CC1 (stereo unspecified)
-5%[70.6 µM],COc1cccc(CN2C[C@@H](F)[C@@H](OCc3nc4ccccc4[nH]3)C2)n1
-1%,Cc1c(CN2CCN(c3ncc(F)cn3)CC2)[nH]c2ccc(F)cc12
-8%,COCCN1C(=O)C(CC(=O)NCCc2ccccc2)=C2CCCCC21 (stereo unspecified)
0%[70.6 µM],c1ccc(Cc2nnc([C@H]3CCN(C4CCCCC4)C3)o2)cc1
-1%,Cc1nn(CC(=O)N2CCN(c3ccc(F)cc3)CC2)c(=O)c2nc(C(C)C)sc12
3%,Cc1ccc(NC(=O)CC2CCCN(c3cnn(CC4CC4)c(=O)c3)C2)cc1 (stereo unspecified)
-2%,O=C(NCc1cc(-c2ccccc2Cl)no1)C1CC2(CCNCC2)CN1 (stereo unspecified)
-5%,Cc1nnsc1C(=O)N1CCCC(c2ccccc2)(c2ccccc2)C1
-16%[70.6 µM],COc1ccccc1N1CCCc2ncc(C(=O)N3CCC[C@@H]3c3ccc(F)cc3)cc21

Following part:
NPR1 antag,Compound
-3%,Cc1c(Cl)cccc1NC(=O)Cn1cccc1-c1nc(-c2ccc3c(c2)OCO3)no1
-12%[70.6 µM],c1ccc2sc([C@H]3CCN(Cc4ccc5c(c4)OCO5)C3)nc2c1
6%,CN(C)[C@@H]1CN(Cc2cccc(C#N)c2)C[C@H]1CO
8%,O=C(CN1C(=O)COc2ccc(C(=O)COc3ccccc3Cl)cc21)NCCc1ccccc1
-3%,CC(C)NC(=O)c1nc(-c2cccc(C(F)(F)F)c2)c2cnccn12
5%[70.6 µM],CC(C)CCN1CCC12Cc1ccccc1NC2=O (stereo unspecified)
16µM*,Cc1nn(C)c2nc(N3CCC(C#N)(c4ccccc4)CC3)sc12
5%,COc1cccc(CN2CCc3nn(C)c(=O)n3CC2)n1
1%[70.6 µM],CC(=O)N1CCC(N2C[C@H](O)C[C@H]2c2nc(-c3ccccc3)no2)CC1
2%,CCCS(=O)(=O)N1CCc2nn(CCOC)c(=O)n2CC1
-7%,COc1cccc(NC(=O)N2CCCC(Cn3cnc4cccnc43)C2)c1 (stereo unspecified)
5%,CC(=O)N[C@H]1C[C@@H](c2ccc(-n3cncn3)cc2)O[C@@H](C2CCCCC2)C1
-12%,CC(C)N1C(=O)C2(CCCCC2)C1C(=O)N1CCN(C)CC1 (stereo unspecified)
-15%,CCn1ncc(N2CCC(NC(=O)c3ccc(OC)c(F)c3)CC2)cc1=O
?,Cc1ccc(-c2cn3c(n2)CO[C@@H](CNCc2ccc(Cl)cc2)C3)cc1
-1%,COc1cccc(C(=O)N2CCCC3(C2)NC(=O)N(Cc2ccc(C)cc2)C3=O)c1 (stereo unspecified)
18µM*,Cc1ccc(C(=O)N2CCN(c3cc(-c4ccc(Cl)cc4)[nH]n3)CC2)cc1F
3%,CN(C)Cc1nnc(C2CCCN(C(=O)N3CCOCC3)C2)n1C (stereo unspecified)
-2%,O=C(C1CCN(c2cn[nH]c(=O)c2)C1)N1CCc2ccccc2C1 (stereo unspecified)
4%,COc1cccc(C(=O)NCC2CCCN(Cc3ccn[nH]3)C2)c1OC (stereo unspecified)

Sorted by the number under NPR1 antag (falling): three of the compounds above.
structure	NPR1 antag
O=C(CN1C(=O)COc2ccc(C(=O)COc3ccccc3Cl)cc21)NCCc1ccccc1	8%
CC(=O)N[C@H]1C[C@@H](c2ccc(-n3cncn3)cc2)O[C@@H](C2CCCCC2)C1	5%
CN(C)Cc1nnc(C2CCCN(C(=O)N3CCOCC3)C2)n1C (stereo unspecified)	3%

Following part.
NPR1 antag,Compound
-2%[70.6 µM],CC(=O)N[C@H]1CC[C@]2(C)CCC([C@H](C)C(=O)NCc3ccc(F)cc3)[C@H](O)[C@H]2[C@@H]1C (stereo partly specified)
1%,Cc1cc(C)n(C(C)C(=O)N2CCn3nc(Cc4ccccc4)cc3C2)n1 (stereo unspecified)
-14%,C[S+](=O)([O-])N1CC2(Cc3ccccc31)CN([S+](=O)([O-])c1ccc(C(F)(F)F)cc1)C2
1%,CN(Cc1ccccc1)C(=O)[C@H]1O[C@H](CCN2CCN(Cc3ccccc3)CC2)CC[C@@H]1O
-4%[70.6 µM],CC(C)(C)c1coc([C@@H]2COCCN2Cc2cnc[nH]2)n1
4%,CCN1C(=O)C2CC3(CCN(C(=O)CCc4nc5ccccc5[nH]4)CC3)CN2C1=O (stereo unspecified)
14µM*,COCc1nc2nc(-c3ccccc3)c(-c3ccc(N4CCN(C)CC4)nc3)cc2n1C
-6%,O=C(CCc1conc1-c1cccc(F)c1)NCc1ccc(F)cc1
-17%,CC(=O)Oc1c(-c2ccc(NC(=O)CC(C)C)cc2)c(-c2ccc(F)cc2)nn1-c1ccc(F)cc1
-5%,O=C(c1cnccn1)N1CCC2(CC1)NC(=O)N(Cc1ccc(Cl)cc1)C2=O
2%,CCN1c2cc(C(=O)NC3CCCCCC3)ccc2C(=O)N2CCCCCC21 (stereo unspecified)
2%,COc1ccccc1CNC(=O)CCC[C@@H]1[C@H]2CCCN3CCC[C@@H](CN1C(=O)c1cccnc1)[C@@H]23
6%,CNC(=O)c1cc(NC(=O)C2CCC2)cc2nc(C)ccc12
0%,Cc1ccc(Cl)c(C(=O)N2CCC(=O)N(CC3CC3)C(C(C)C)C2)c1 (stereo unspecified)
-1%,O=C(c1n[nH]c2ccccc12)N1CCC(c2nc(CCOCC3CC3)no2)C1 (stereo unspecified)
11µM*,Cc1ccc(OCc2nc(C3CCN(C(=O)CCc4nc5ccc(Cl)cc5[nH]4)CC3)no2)cc1
4%,O=C(NCc1ccccc1)C1CC(=O)N(c2n[nH]c3cccc(F)c23)C1 (stereo unspecified)
-12%,Cc1ccc(C)c(-c2cc3c(=O)n(CCNC(=O)c4ccncc4)ccn3n2)c1
0%[70.6 µM],Cc1cnc(NC(=O)c2ccc3c(c2)OCCN(Cc2ncccn2)C3)s1
2%,COCCNC(=O)[C@H]1C[C@H](Oc2cccnc2)CN1C(=O)c1ccc(F)cc1

Five compounds drawn at random from those above, as already listed:
NPR1 antag,Compound
0%,Cc1ccc(Cl)c(C(=O)N2CCC(=O)N(CC3CC3)C(C(C)C)C2)c1 (stereo unspecified)
2%,COc1ccccc1CNC(=O)CCC[C@@H]1[C@H]2CCCN3CCC[C@@H](CN1C(=O)c1cccnc1)[C@@H]23
-5%,O=C(c1cnccn1)N1CCC2(CC1)NC(=O)N(Cc1ccc(Cl)cc1)C2=O
-4%[70.6 µM],CC(C)(C)c1coc([C@@H]2COCCN2Cc2cnc[nH]2)n1
-1%,O=C(c1n[nH]c2ccccc12)N1CCC(c2nc(CCOCC3CC3)no2)C1 (stereo unspecified)

Additional records
NPR1 antag,Compound
-30%[70.6 µM],Fc1ccc(-c2cnc([C@@H]3COCCN3Cc3ccccc3F)[nH]2)c(F)c1
-3%,CCOc1ccc(CN2CC[C@@](C)(O)[C@H](N3CCCC3)C2)cc1OC
1%,CC(C)S(=O)(=O)c1ncc(CN(CCO)Cc2ccccc2)n1CCc1ccccc1
4%,COc1cc(=O)n2c(c1C(=O)Nc1ccc(Cl)c(Cl)c1)CCCC2
-2%,O=C(NCCc1ccccc1)N1CCC2(CC1)CC(N1CCCC1)CCO2 (stereo unspecified)
1%,CCn1cc(CN2CCC(N3C(=O)C4(CCCC4)C3c3ccccc3)CC2)cn1 (stereo unspecified)

Shown with tabs: 3 of the compounds above.
SMILES	NPR1 antag
CC(C)S(=O)(=O)c1ncc(CN(CCO)Cc2ccccc2)n1CCc1ccccc1	1%
O=C(NCCc1ccccc1)N1CCC2(CC1)CC(N1CCCC1)CCO2 (stereo unspecified)	-2%
CCOc1ccc(CN2CC[C@@](C)(O)[C@H](N3CCCC3)C2)cc1OC	-3%

This is a subset; rates above refer to the full screens.
